PMP22 txn – modulates PMP22 transcription in S16 Schwann cells; S16 Pmp22-F2sN Schwann cells (luciferase reporters placed in the Pmp22 gene), FLuc/NLuc coincidence luminescence, 24 h; 43,000 compounds, 2% hits; AID 1508649; Potency, µM (series often up to 57.5 µM), for the others: top-dose activity change, negative = inhibition, most hits filed as inhibitors; active = clear falling dose curves in both reporters; inconclusive = both reporters move, but less clearly or upward; inactive = either reporter flat; the % is the NLuc reporter signal; also: % is scaled to controls: 0 for no effect and ±100 for the full control effect; some results filed as inactive show a strong effect at the top dose
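Rat S16 Pmp22-F2sN cells, 500-1,000/well in phenol red-free DMEM + 10% FBS, compound-treated 24 h (37C, 5% CO2). Luminescence: FLuc read, Stop&Glo added, NLuc read.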
HTT promoter inh – inhibits huntingtin promoter activity; AID 1508623; Potency, µM (series often up to 57.5 µM), for the others: at the highest dose activity change, negative = inhibition, usual class: inhibitors; 48,000 compounds, 0.93% hits; HEK293 HTT promoter firefly luciferase reporter (activity 0% = vehicle and -100% = no light), 24 h; active = well fitted inhibition curve with a large enough effect; inconclusive = small, poorly fitted or top-dose-only effect; inactive = no such curve, though single readings can be large or run the other way; also: nearly all actives have a fitted effect of over 50% in size
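Quantitative HTS used concentration series of up to 57.5 uM final on HEK293 luciferase reporter cells, 24 h at 37 degrees C. Readout was Dual-Glo firefly luminescence.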
The depositor's hits bear a star; ? = inconclusive; / = no result given; [ ] = remark or other dose. Potency is read from the fitted curve at half-maximal effect.

The first 6 entries, ahead of the listing:
canonical_smiles | PMP22 txn | HTT promoter inh
Cc1ccc(-n2ncc(C(=O)N3CCC(c4ccccc4)C3)c2C2CCN(C(=O)OC(C)(C)C)CC2)cc1 (centres undefined) | ? | -11%
O=C(CSc1nc(-c2cccs2)cc(C(F)(F)F)n1)Nc1ccccc1Cl | -39% | ?
O=C(NCCCN1CCN(c2ccccc2F)CC1)c1ccc2nc(CCc3ccccc3)oc2c1 | ? | ?
CCOC(=O)N1CCC(NC(=O)c2cnn(-c3cccc(C)c3)c2-n2cccc2)CC1 | 1% | -30%
CC(C)CC(=O)NC1CC(=O)N(c2ccc3c(c2)OCCO3)C1 (centres undefined) | 7% | -12%
COc1ccc(CNC(=O)CSc2ncc3c(n2)-c2ccc(Cl)cc2N(Cc2ccc(F)cc2)S3(=O)=O)cc1OC | ? | -15%

The whole of this part, from the first entry:
canonical_smiles | PMP22 txn | HTT promoter inh
Cc1ccc(-n2ncc(C(=O)N3CCC(c4ccccc4)C3)c2C2CCN(C(=O)OC(C)(C)C)CC2)cc1 (centres undefined) | ? | -11%
O=C(CSc1nc(-c2cccs2)cc(C(F)(F)F)n1)Nc1ccccc1Cl | -39% | ?
O=C(NCCCN1CCN(c2ccccc2F)CC1)c1ccc2nc(CCc3ccccc3)oc2c1 | ? | ?
CCOC(=O)N1CCC(NC(=O)c2cnn(-c3cccc(C)c3)c2-n2cccc2)CC1 | 1% | -30%
CC(C)CC(=O)NC1CC(=O)N(c2ccc3c(c2)OCCO3)C1 (centres undefined) | 7% | -12%
COc1ccc(CNC(=O)CSc2ncc3c(n2)-c2ccc(Cl)cc2N(Cc2ccc(F)cc2)S3(=O)=O)cc1OC | ? | -15%
O=C(CSc1ncc2c(n1)-c1ccc(Cl)cc1N(Cc1ccccc1)S2(=O)=O)Nc1ccc(F)c(F)c1 | ? | -21%
CCOc1ccc(NC(=O)CSc2ncc3c(n2)-c2cc(Cl)ccc2N(C)S3(=O)=O)cc1 | ? | -18%
CCc1ccc(-c2[nH]c3c(c2-c2sc(C)c(C(=O)OC)c2O)c(=O)n(C)c(=O)n3C)cc1 | -10% | 7%
COc1ccc(Cl)cc1NC(=O)CSC1=Nc2ccccc2C2=NC(CCC(=O)NCc3ccco3)C(=O)N12 (centres undefined) | 20µM* | -11%
CCOC(=O)CSc1nc(-c2ccc(OCC)cc2)cc(C(F)(F)F)c1C#N | -7% | -6%
CCc1ccc(-c2cn3c(n2)sc2cc(C(=O)NCCc4ccc(OC)cc4OC)ccc23)cc1 | ? | -18%
Cc1ccc(C)c(Nc2cc(C(=O)NCCCN(C)C3CCCCC3)c3ccccc3n2)c1 | ? | ?
Cc1cccc(C)c1NC(=O)CN(C)S(=O)(=O)c1ccc2c(c1)n(C)c(=O)c(=O)n2C | -29% | -11%
Cc1ccc(CNC(=O)C2CCCN(S(=O)(=O)c3ccc4c(ccn4C)c3)C2)cc1 (centres undefined) | 80% | 16%
CSc1ncc(C(=O)Nc2cccc(C)c2C)c(-c2ccccc2)n1 | -13% | -13%
CCn1cc(C(=O)NCCCOC)c(=O)c2cc(S(=O)(=O)N3CCc4ccccc4C3)ccc21 | ? | -10%
CCOC(=O)c1c(C)[nH]c(C)c1S(=O)(=O)N1CCC(C(=O)Nc2ccc(C)c(Cl)c2)CC1 | ? | ?
Cc1ccc(-n2nc(C(=O)Nc3ccc(F)cc3Cl)c(=O)n(C)c2=O)cc1 | 5% | -3%
Cc1nc(-c2ccc(C)c(N3CCN(C(=O)Nc4ccccc4C(F)(F)F)CC3)c2)no1 | -1% | -20%
Cc1ccc(Nc2cc(C(=O)NC3CCCC3)c3ccccc3n2)cc1C | 2.8µM* | ?
Cc1ccc(S(=O)(=O)N2CCCc3cc(NC(=O)c4c(F)cccc4F)ccc32)cc1 | -5% | ?
Cc1cccc(NC(=O)COC(=O)CCCC2=NS(=O)(=O)c3ccccc3N2)c1 | ? | -17%
CC(C)c1ccc(NC(=O)c2cc(S(=O)(=O)NCc3ccccc3Cl)ccc2F)cc1 | ? | ?
COc1ccc(-c2csc(=Nc3ccccc3)n2CCO)cc1F | ? | ?
COc1ccc(CCNC(=O)Cc2c(C)c3cc4c(C)coc4c(C)c3oc2=O)cc1 | -9% | -9%
Cc1cccc(-c2noc(-c3ccccc3NC(=O)C3CC(=O)N(c4ccccc4C)C3)n2)c1 (centres undefined) | -19% | 10%
Cc1cc(OCC(=O)Nc2sc3c(c2C#N)CCC(C)C3)ccc1Cl (centres undefined) | ? | -4%
O=C(Nc1ccccc1C(F)(F)F)Nc1c[nH]c(=O)[nH]c1=O | -3% | 3%
Nc1nonc1-c1nc2ccccc2n1CC(=O)Nc1ccc(F)cc1 | -10% | ?
CCOC(=O)c1cnc2ccc(OC)cc2c1Nc1cccc(C(C)=O)c1 | ? | ?
O=C(CSc1c2c(nc3ccc(Cl)cc13)CCCC2)N1CCN(c2cccc(Cl)c2)CC1 | 20µM* | ?
COc1cc(-c2cc(OC)c3c(C)oc(C)c3c(=O)c2)ccc1OC(=O)c1cccc(C)c1 | ? | 2%
COc1ccc(NC(=O)CCc2nnc3n(C)c(=O)c4sccc4n23)cc1Cl | 1% | -5%
Cc1cccc(Oc2nc3c(C)cccn3c(=O)c2/C=C(\C#N)c2nc3ccccc3[nH]2)c1 | 2% | -19%
CCC(Sc1nc2n[nH]c(C)c2c(=N)n1-c1ccc(Br)cc1)C(=O)N(CC)CC (centres undefined) | ? | ?
O=c1oc2ccc(Br)cc2cc1-c1nc(-c2ccccc2)no1 | -6% | -7%
COc1ccc(-n2nc3cc(C)c(NC(=O)c4ccc(-c5ccc(Br)cc5)o4)cc3n2)cc1 | 4% | 35%[activator]
Cc1ccc(NCc2cccn2-c2nnc(N3CCC(C(=O)NCCc4ccccc4)CC3)s2)cc1 | ? | ?
O=C(COc1ccccc1Cl)Nc1ccc(-c2nc3ccccc3s2)cc1 | ? | 89%[activator]
Cc1c(C(=O)NCc2ccccc2Cl)sc2ncnc(N(C)C3CCCCC3)c12 | ? | -38%
Cc1ccc(C)c(Cn2c(=O)n(CCCC(=O)NCCc3ccc(Cl)cc3)c(=O)c3ccccc32)c1 | ? | -11%
Cc1ccc(NC(=O)c2ccc(=O)n(CC(=O)Nc3cccc(C)c3)n2)cc1 | 3% | -18%
COCCCN(Cc1ccco1)C(=O)c1cc2c(s1)-c1ccccc1OC2 | ? | -16%
Cc1ccc2oc(=O)c3cnn(CC(=O)N4CCN(c5ccc(F)cc5)CC4)c3c2c1 | 5% | -2%
COc1cccc(CNC(=O)CC(c2ccc(C)cc2)N2Cc3ccccc3C2=O)c1 (centres undefined) | 8% | -12%
CC(C)c1ccc(OCC(=O)N(Cc2cccs2)C2CCS(=O)(=O)C2)cc1 (centres undefined) | -13% | -23%
COc1cccc(-n2ccnc2SCC(=O)Nc2cccc3ccccc23)c1 | ? | -29%
CCC(Sc1nc2cc(OC)c(OC)cc2c(=O)n1Cc1ccc(OC)cc1)C(=O)NCCOC (centres undefined) | -3% | -8%
Cc1cccc(Cn2c(CNC(=O)c3ccccc3)nc3ccccc32)c1 | -10% | -21%
Cc1ccc(S(=O)(=O)Cc2nc(-c3ccc(C(=O)NCCCOC(C)C)cc3)oc2C)cc1 | -5% | -19%
CC(C)c1ccc(NC(=O)Cn2nnc(C(=O)NCc3ccc4c(c3)OCO4)c2N)cc1 | -9% | -11%
COc1ccc(CNC(=O)C(C)N2Cc3ccccc3C2=O)cc1 (centres undefined) | 6% | -11%
O=C(COc1ccc(F)cc1)NCc1ccc2c(c1)CCN2C(=O)c1ccc(F)cc1 | -5% | -31%
Cc1cccc(C2C=C(c3ccc(F)cc3)Nc3nc4ccccc4n32)c1 (centres undefined) | ? | 52%[activator]
COc1c(Cl)cc(C(=O)Nc2cccc(-c3nc4ccccc4[nH]3)c2)cc1Cl | ? | -25%
Cc1cc(C)cc(NC(=O)CCCn2c3ccccc3c(=O)c3ccccc32)c1 | ? | ?
CCOc1ccc(NC(=O)C2CCC(CNS(=O)(=O)c3ccc(Br)s3)CC2)cc1 (centres undefined) | -11% | 0%
Cc1ccc(N2CCN(C(=O)c3nn(C)c4c3CSc3ccccc3-4)CC2C)cc1 (centres undefined) | -10% | -17%
COCCNC(=O)CSc1nc2cc3c(cc2c(=O)n1Cc1ccc(C(=O)NCCc2ccc(OC)c(OC)c2)cc1)OCO3 | ? | -15%

(list continues)
canonical_smiles | PMP22 txn | HTT promoter inh
Cc1ccc(N)cc1O | / | 19%[116 µM]
Oc1cccc(Nc2ncnc3sc4c(c23)CCCC4)c1 | ? | -26%
Cc1nc(N2CCCC2)c2c(C(=O)Nc3ccc(Br)cc3F)c(C)oc2n1 | -12% | -17%
COc1ccc(C(=O)c2sc3nc(-c4ccc(C)cc4)cc(C(F)(F)F)c3c2N)cc1 | -18% | -13%
COc1cccc(C(=O)Nc2cccc(C(=O)OCc3cc(=O)n4c(C)csc4n3)c2)c1 | 8% | -17%
Cc1ccc2c(=O)cc(C(=O)Nc3ccc(S(=O)(=O)Nc4onc(C)c4C)cc3)oc2c1C | -85% | -3%
Cc1ccc(CCNC(=O)CCCn2c(=O)c3ccccc3n(Cc3ccccc3C)c2=O)cc1 | ? | -26%
Cc1cccc(NS(=O)(=O)c2ccc3[nH]c4c(c3c2)CCCCCC4)c1 | ? | ?
c1ccc2c(c1)CCCC2C1=NCCN1 (centres undefined) | / | 11%
CCc1cc2c(cc3c(=O)n(CC(=O)NC4CCC(C)CC4)ncn32)s1 (centres undefined) | -4% | -10%
O=C(Cn1c(=O)oc2cc(S(=O)(=O)N3CCCCC3)ccc21)NCc1ccc(Cl)cc1 | ? | ?
Cc1ccc(C)n1-c1c(C(=O)NCCCN2CCN(c3ccc(F)cc3)CC2)sc2ncccc12 | -10% | ?
COc1cccc(NC(=O)c2sc3nc(C)c(C(=O)Nc4ccc(C)cc4C)c(-c4ccccc4Cl)c3c2N)c1 | -6% | -4%
O=c1[nH]c(=O)n(C2CCCCC2)c(O)c1C1=Nc2ccccc2SC(c2ccc(Cl)cc2)C1 (centres undefined) | 2% | -20%
Cc1nn(-c2ccc(F)cc2)c(-n2cccc2)c1C(=O)N1CCN(c2ccc(F)cc2)CC1 | -3% | 28µM*
Clc1ccc(OCc2nc3ccccc3n2Cc2ccccc2)c(Cl)c1 | 3% | 9%
COc1ccc(C(=O)Nc2ccc3nc(SCC(=O)N(C)c4ccccc4)sc3c2)cc1 | ? | ?
Cc1cccc(Cc2c(C)nc3nc(SCc4cccc(F)c4)nn3c2C)c1 | -26% | -26%
CCOC(=O)N1CCc2c(sc3c2c(=O)n(Cc2ccccc2)c(=O)n3CC(=O)Nc2ccc(C)c(C)c2)C1 | -8% | -5%
COCCOc1nc(-c2ccc(Cl)c(Cl)c2)n(-c2ccc(NC(=O)CCl)cc2)n1 | / | -20%
CCc1nn(Cc2cc(C)ccc2C)c(=O)c2cc3cc(C)ccc3n12 | 5% | 0%
Cc1ccc(-n2ncc(C(=O)NCCN3CCOCC3)c2C2CCN(C(=O)OC(C)(C)C)CC2)c(C)c1 | -13% | -11%
Cc1cn2c(=O)c(S(=O)(=O)N3CCN(c4cc(Cl)ccc4C)CC3)c(C)nc2s1 | -2% | -7%
O=C(c1ccccc1)N1c2nc(-c3ccco3)nn2C2(CCCCC2)[C@@H]2CCCC[C@@H]21 | -14% | -14%
Cn1nnnc1SCCCNCc1cc(Cl)ccc1OCc1ccccc1 | ? | ?
Cc1ccccc1S(=O)Cc1ccc(C(=O)NC2CCCCCC2)o1 (centres undefined) | -23% | -20%
COc1c(C)cccc1C(=O)Nc1ccc(-c2nc3ccccc3s2)c(Cl)c1 | ? | -9%
Cc1ccc2nc(N(CCCN(C)C)C(=O)c3ccc(Br)s3)sc2c1 | ? | ?
COc1ccc(NC2=C(c3ccc(C(F)(F)F)cc3)C(=O)c3ccccc32)cc1 | -50% | 14%
Cc1ccc(NC(=O)C2CCCN(S(=O)(=O)c3ccc(C)cc3)C2)cc1 (centres undefined) | 7% | -9%
COc1cccc(Cn2c(SCC(=O)N3CCN(c4ccc(F)cc4)CC3)nc3ccccc32)c1 | -30% | ?
Cc1cc(C)c2oc(C(=O)Nc3ccc(S(=O)(=O)N(C)c4ccccc4)cc3)cc(=O)c2c1 | 11% | 20%
CCOC(=O)c1c(N)n(-c2ccc(OCC)cc2)c2nc3ccccc3nc12 | -7% | -2%
COc1ccccc1-n1c(SCC(=O)Nc2ccc(C)cc2)nc(O)cc1=O | -34% | -16%
CCN(CC)S(=O)(=O)c1ccc2c(c1)c(=O)c(C(=O)N(C)Cc1ccccc1)cn2C | 2% | 6%
Cc1ccccc1CNC(=O)c1cc2cc(S(=O)(=O)N3CCCCC3)ccc2n1C | ? | ?
COc1ccc(-c2cn3nc(N4CCC(C(=O)Nc5ccccc5OC)CC4)sc3n2)cc1 | -22% | 3%
O=C(NCCn1ccc2ccccc21)c1ccc(Cl)cc1 | 9% | 26%
Cc1cccc(C)c1NC(=O)CSc1nc2ncccc2o1 | -1% | -2%

From PubChem BioAssay
